# Screens deposited in PubChem by several laboratories.
# ugtP null kill: compounds lethal to S. aureus RN4220 ugtP deletion mutant. OD600 growth, 16 h; some inactives read as strong as hits. hit rate 0.54% among 330,000. growth inhibition, % (no concentration beside the values);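 active means z-score under -3 and OD600 up to 0.15 on both plates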;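 further: plate controls were untreated wells for no effect and antibiotic for full effect; wells of about 80 µL received 100 nL stock; the first replicate is given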
# RN4220 kill: S. aureus RN4220 growth inhibition; OD600, 16 h; inhibition, % (concentration not given with the values); hit rate 0.33% among 330,000; AID 1259311;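 active means z-score of -3 or lower and OD600 up to 0.18 on both plates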;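 further: plate controls were untreated cells for no effect and reference antibiotic for full effect; stock transfer was 100 nL into about 80 µL; one replicate is shown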
# Bead autofluor: flagged as autofluorescent in microsphere protease counterscreen. AID 624483. compound autofluorescence counterscreen, microsphere flow cytometry; hits give high values. hit rate 3.1% among 360,000. fluorescence intensity (no concentration beside the values);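 active means at least 3 SD above the mean of all compounds, about 16000 in these data; inconclusive means too few beads counted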;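 further: 100 nL of 1 mM stock went into each well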
# Mtb hypoxia inh: reduces hypoxia-regulated biosensor signal in M. tuberculosis. AID 1159583. M. tuberculosis hypoxia-regulated fluorescent reporter, fluorescence. hit rate 0.1% among 300,000. fluorescence inhibition, % (no concentration beside the values);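 active means 35 to 45% if threefold the growth effect, above 45% if 1.5-fold the growth effect; inactive means the rest, general growth blockers included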;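 further: wells of about 50 µL received 100 nL stock; 0% = vehicle wells and 100% = reference inhibitor wells; whole bacteria with a GFP reporter of the hypoxia response; strong numbers were not always called active; many hits fall short of the cut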
# PrP UTR inh: suppresses PrP 5' UTR mRNA reporter expression. inhibition, % (concentration not given with the values). cell-based PrP 5' UTR mRNA reporter, plate reader. AID 488862. hit rate 0.35% among 340,000;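 active means every replicate at 50% or more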;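 further: 0 = median of the neutral control wells; tested in H4 reporter cells; numbers are from one replicate; inactives centre near -14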
# BJeLR lethal: BJeLR cell viability loss. inhibition, % (no concentration beside the values). hit rate 0.17% among 300,000. BJeLR (HRASV12) viability, CellTiter-Glo ATP luminescence, 48 h; reference of the scale not given here;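 active means replicate mean above 50%; inconclusive means above 50% but judged a plate artefact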;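 further: 50 nL library stock added to about 25 µL; numbers are from one replicate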
# Mtb hypoxia inh growth: further read-out of Mtb hypoxia inh, marked with its call; growth inhibition, %; measured here: M. tuberculosis growth (absorbance);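 0% = vehicle and 100% = reference antibiotic; read after six days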
# Numbers without * were called inactive; ? = inconclusive; · = not tested or not shown.
# The opening six records (preview)
item	mol	Bead autofluor	Mtb hypoxia inh growth	Mtb hypoxia inh	BJeLR lethal	ugtP null kill	PrP UTR inh	RN4220 kill
1	C[N+](C)=C1SCC(C)(C=NO)S1 (configuration not stated)	·	4	-11	·	-2	·	1.9
2	Cc1c(Nc2cc(=O)oc3ccccc23)c(=O)n(-c2ccccc2)n1C	6676	6	-1	0	7	-3	9.2
3	CN(CCC#N)C(=O)c1cc2c(s1)-c1ccccc1SC2	3512	-4	6	3	-7	-44	3.8
4	O=c1[nH]c(SCc2nc3ccccc3n2Cc2ccccc2)nc2ccccc12	2930	1	6	-12	-16	-21	6.6
5	C=CCn1c(SC(C)C(=O)Nc2ccc(Cl)cn2)nnc1C1CC1 (configuration not stated)	·	7	6	3	5	-10	5.9
6	O=C(c1ccccc1)N1N=C(c2ccco2)CC1c1cccs1 (configuration not stated)	4758	5	9	-9	-7	-16	3.3

# The list itself (from the top)
item	mol	Bead autofluor	Mtb hypoxia inh growth	Mtb hypoxia inh	BJeLR lethal	ugtP null kill	PrP UTR inh	RN4220 kill
1	C[N+](C)=C1SCC(C)(C=NO)S1 (configuration not stated)	·	4	-11	·	-2	·	1.9
2	Cc1c(Nc2cc(=O)oc3ccccc23)c(=O)n(-c2ccccc2)n1C	6676	6	-1	0	7	-3	9.2
3	CN(CCC#N)C(=O)c1cc2c(s1)-c1ccccc1SC2	3512	-4	6	3	-7	-44	3.8
4	O=c1[nH]c(SCc2nc3ccccc3n2Cc2ccccc2)nc2ccccc12	2930	1	6	-12	-16	-21	6.6
5	C=CCn1c(SC(C)C(=O)Nc2ccc(Cl)cn2)nnc1C1CC1 (configuration not stated)	·	7	6	3	5	-10	5.9
6	O=C(c1ccccc1)N1N=C(c2ccco2)CC1c1cccs1 (configuration not stated)	4758	5	9	-9	-7	-16	3.3
7	Cc1c(NC(=O)c2nn3c(c2Br)NC(c2ccccc2)CC3C(F)(F)F)c(=O)n(-c2ccccc2)n1C (configuration not stated)	10441	-9	-12	12	-3	-23	4.6
8	O=C(Nc1nc(-c2ccncc2)cs1)C1COc2ccccc2O1 (configuration not stated)	5703	3	6	13	0	-12	-5.7
9	CC1CCN(CCCNC(=O)c2coc3nc4ccccc4nc23)CC1	5057	10	10	-3	1	-11	3.0
10	O=C(O)CCn1c(=O)[nH]c(=O)n(CCC(=O)O)c1=O	4289	4	1	-2	8	-16	2.4
11	O=C(COC(=O)c1cc[n+]([O-])cc1)Nc1ccc2c(c1)OCCO2	3713	·	·	4	5	-15	3.7
12	COc1ccc(OCc2nc(-c3ccc(F)c(F)c3)cs2)cc1	4882	9	10	-3	20	-12	3.0
13	COc1ccc(C(=O)/C=C/c2ccc3c(c2)OCCO3)cc1	3766	7	-2	3	3	-25	5.6
14	COc1ccc(-c2csc(N(CCCN(C)C)C(=O)c3ccccc3F)n2)cc1	4014	6	12	0	3	5	-2.0
15	CC(=O)c1cccc(CN2CCC(C(=O)Nc3ccc(Oc4cccnc4)cc3)CC2)c1	8538	-2	1	4	-2	-10	-2.5
16	CCOc1ccc(N2C(=O)CC(N3CCN(C(=O)CN4CCCC4)CC3)C2=O)cc1 (configuration not stated)	8613	10	-7	6	6	-16	5.9
17	COc1ccc(N2CCN(C(=O)CSc3nnc4c(C)cc5cc(C)ccc5n34)CC2)cc1	23987*	3	4	-7	14	-19	-3.5
18	COC(=O)c1ccc(NC(=O)c2ccccc2SC)cc1	16827*	4	3	8	4	-28	1.6
19	C=C1CCN(C(C(=O)OC)C(C)C)S(=O)(=O)c2ccc(F)cc21 (configuration not stated)	3032	9	23	-4	20	-1	12
20	COc1ccccc1C(=O)NNC(=O)C(=O)Nc1ccc(C)cc1	5169	-6	-2	0	3	1	3.9
21	CCCCn1c(N)c(N(CC)C(=O)CSCc2ccc(C)cc2)c(=O)[nH]c1=O	5860	2	2	-5	2	-23	1.2
22	Cc1ccc(CNC(=O)c2cc(Cl)cc(Cl)c2)n1C	4121	1	-2	11	-8	-24	2.8
23	O=C(CN1C(=O)CCOc2ccccc21)Nc1cccc(S(=O)(=O)N2CCOCC2)c1	3543	5	12	·	0	-33	3.2
24	CCOc1ccc(N=Cc2c(O)n(-c3cccc(C)n3)c(=O)c3ccccc23)cc1	20323*	11	-8	-2	-7	6	-4.7
25	COc1ccc(S(=O)(=O)Nc2ccc(Cc3ccncc3)cc2)cc1OC	4317	-4	-4	12	-5	4	-6.8
26	CN1C(c2ccc(F)cc2)=CS/C1=C(\C#N)c1nnc2n1-c1ccccc1SC2	8929	11	-7	-4	-7	5	3.2
27	CN(CCOc1ccc(Br)cc1)CC(=O)Nc1cccc(S(=O)(=O)NC2=NCCC2)c1	4247	-2	12	21	6	-20	4.0
28	CCCC(=O)N1CCCC(c2nc(-c3cccs3)no2)C1 (configuration not stated)	4124	10	13	-6	7	-41	5.1
29	CCOC(=O)C1(CC2CCCCO2)CCN(S(=O)(=O)c2ccc(C)s2)CC1 (configuration not stated)	4012	5	1	-13	6	-36	9.6
30	Cc1nnc(N/N=C/c2c(O)n(-c3cccc(C(F)(F)F)c3)c(=O)c3ccccc23)[nH]c1=O	·	0	2	-4	3	·	13
31	CCC1(c2ccccc2)NC(=O)N(CC(=O)N(C)CC(=O)Nc2cccc(F)c2)C1=O (configuration not stated)	6053	3	-1	-3	6	-8	1.7
32	COc1ccc(C(=O)OCC(=O)Nc2ccccc2)cc1[N+](=O)[O-]	4508	5	-9	-1	-3	-23	-1.9
33	O=C(Cc1cccs1)Nc1nnc(SCC(=O)NC2CCCCC2)s1	9867	10	-5	-4	-2	-9	1.4
34	Cc1ccc(C(=O)Nc2ccc(N3CCN(C)CC3)cc2)c(Cl)c1	3065	7	-5	-6	14	-72	2.5
35	O=C(CCN1CC1)OCCOC(=O)CCN1CC1	3644	2	2	·	-6	-7	-0.3
36	COc1ccc(S(=O)(=O)NCCCn2ccnc2)cc1C(C)(C)C	2854	-7	0	-2	12	-5	3.9
37	CCC(=O)N1CCC2(CC1)Oc1ccc(Cl)cc1C(=O)C21CC(c2ccc(Cl)cc2)=NO1 (configuration not stated)	3531	0	4	2	4	-22	7.4
38	CCSc1nnc(-c2cc(Br)ccc2NC(C)=O)c(=O)[nH]1	4606	-8	-16	7	12	-29	2.7
39	S=c1nc2[nH]c3ccccc3c2n[nH]1	4240	11	19	·	3	-18	8.3
40	Cc1cccc(OCc2nc(-c3ccccn3)n[nH]2)c1	2547	·	·	-2	-4	-25	-1.3
41	CCCCCCn1c(SCC(=O)c2ccccc2)nc2c1c(=O)[nH]c(=O)n2C	4295	8	5	8	-6	-4	-2.6
42	COc1ccc(Cn2c(O)c(C=NCCCn3ccnc3)c(=O)[nH]c2=O)cc1	2991	5	11	-4	2	13	5.3
43	COc1cccc(NC(=O)C2CCCN2C(=O)Nc2cccc(F)c2)c1 (configuration not stated)	2247	·	·	-12	8	0	1.9
44	COc1cc(/C=C/C(=O)OCC(=O)NCCC2=CCCCC2)ccc1O	3442	3	-10	-3	8	-16	2.2
45	COc1ccccc1N1CCN(c2cc(C)nc3nc(C)nn23)CC1	5379	·	·	-9	8	-18	4.6
46	Cc1cc(C)nc(NC(=O)c2ccc(Cl)cc2Cl)n1	4605	7	15	32	3	-18	0.4
47	COc1cc(/C=C2\C(=O)NC(=O)N(c3ccccc3)C2=O)cc(OC)c1O	11047	-3	6	7	-2	·	4.5
48	COc1ccc(C2CC(=O)C=C(c3cccc(OC)c3OC)C2)cc1OC (configuration not stated)	·	-5	10	·	6	·	5.0
49	O=C(Nc1nc(-c2ccc(Br)cc2)cs1)c1cccnc1	4447	-2	4	3	0	-15	1.6
50	COc1ccccc1OCC(=O)Nc1ccc(S(=O)(=O)N2CCCC2)cc1	3485	9	4	2	5	-16	0.1
51	COc1ccc(OC)c(C2=Nn3c(nnc3-c3ccncc3)SC2)c1	6481	13	17	1	0	-14	2.5
52	COc1ccccc1N1CCN(/N=C/c2c(C)nn(-c3ccccc3)c2C)CC1	11510	·	·	-2	·	-12	·
53	O=C(CCn1cnc2ccccc2c1=O)Nc1ccc(S(=O)(=O)N2CCCCC2)cc1	2440	·	·	-10	8	-3	3.2
54	COc1ccc(C(=S)N2CCC(C(N)=O)CC2)cc1Br	4290	-1	10	0	2	-28	1.6
55	O=c1[nH]c(CSc2ncn[nH]2)nc2ccccc12	?	-5	-10	-9	0	-17	0.8
56	COc1ccc(S(=O)(=O)N2CCCN(CC(=O)Nc3ccccc3F)CC2)cc1	3151	6	-14	-2	-2	12	5.9
57	CCCn1c(C)cc(/C=C(\C#N)C(=O)OCC(=O)N(C)c2c(N)n(Cc3ccccc3)c(=O)[nH]c2=O)c1C	5403	9	2	-3	6	-18	-1.8
58	Cc1cc2ncc(C(=O)Nc3ccccc3)c(C)n2n1	3011	2	-10	6	1	-11	4.1
59	Cc1nn2c(NCc3ccccn3)cc(C(C)C)nc2c1-c1ccccc1	5765	4	3	-10	0	-12	-1.5
60	CCOC(=O)C(CCCOc1ccccc1C)C(=O)OCC	3315	-1	4	·	12	-4	-12

# (list continues)
item	mol	Bead autofluor	Mtb hypoxia inh growth	Mtb hypoxia inh	BJeLR lethal	ugtP null kill	PrP UTR inh	RN4220 kill
61	Cc1nc2ccccc2cc1C(=O)O	3430	·	·	1	6	-8	-1.0
62	COCCn1c(Cc2ccccc2)nnc1SCC(=O)N(C)C	21939*	2	-2	3	2	-6	1.7
63	CC1CCC(C(C)C)C(OC(=O)C2=C3c4ccccc4S(=O)(=O)N3CC2)C1 (configuration not stated)	3562	·	·	4	-3	1	1.0
64	CCOC(=O)c1oc2ccc3c(c2c1C)C(=O)CC1(CCN(C(=O)OCC)CC1)O3	2930	·	·	-1	-7	-3	-0.5
65	CC1CCCC(NC(=O)COC(=O)COc2ccc(C#N)cc2)C1C (configuration not stated)	3603	5	-2	·	0	-5	0.8
66	N/C(Cc1ccc([N+](=O)[O-])cc1)=N\OC(=O)c1ccc(Br)o1	2135	·	·	19	·	-8	·
67	O=C(CN1C(=O)C2C3CCC(C3)C2C1=O)OCC(=O)c1ccc(Br)cc1 (configuration not stated)	4432	-6	4	-11	6	-6	2.0
68	CCN1C(=O)C(O)(CC(=O)c2ccc3c(c2)OCCO3)c2ccccc21 (configuration not stated)	5525	·	·	3	-5	-14	5.8
69	C=CCN1CN(Cc2ccco2)CNC1=S	2647	0	17	1	-2	-19	3.4
70	CCOC(=O)c1c(-c2ccc(C)cc2)csc1NC(=O)C1CC=CCC1C(=O)O (configuration not stated)	3583	·	·	-4	40	9	10
71	O=C(c1ccc(C(F)(F)F)cc1)N1CCC(=O)N(C(COCc2ccc(Cl)cc2)Cc2ccccc2)CC1 (configuration not stated)	3553	10	18	-3	5	1	-4.7
72	CN(C)Cc1c(C(=O)N/N=C/c2cccc(OCc3ccc(F)cc3)c2)nnn1-c1nonc1N	2798	·	·	-3	·	-11	·
73	Cc1nnc(SCSc2nnc(C)s2)s1	·	4	4	1	-4	-23	-7.5
74	O=C(/C=C/c1cn(-c2ccccc2)nc1-c1cccnc1)N1CCCCC1	4815	13	12	-1	-12	-50	5.9
75	Cc1cccc(N(C(=O)c2snc(C(N)=O)c2N)C(C(=O)NCC2CCCO2)c2ccc(N(C)C)cc2)c1 (configuration not stated)	3788	-11	10	7	14	-34	2.1
76	CC(=O)NNC(=O)C(O)(c1ccccc1)c1ccccc1	10847	4	2	2	5	-13	4.0
77	c1ccc(-n2ncc3c2ncn2nnnc32)cc1	9319	2	18	-11	5	3	5.4
78	c1ccc(NCc2cccc3ccccc23)nc1	3541	0	0	-4	6	-25	9.0
79	Clc1ccc(CNCC2CCCO2)c(Cl)c1 (configuration not stated)	·	-2	0	-1	10	·	4.8
80	N#CC1=C(N)OC2=C(C(=O)CCC2)C1c1cccs1 (configuration not stated)	3681	11	12	-9	5	-12	6.6
81	CCCC(=O)c1ccc(N2CCN(C(=O)c3ccccc3Br)CC2)c(F)c1	2389	·	·	-7	24	-19	8.6
82	CCCC(=O)NC(Nc1cccc(C(F)(F)F)c1)C(Cl)(Cl)Cl (configuration not stated)	2948	·	·	-3	·	-7	·
83	Cc1cc(N2CCN(C)CC2)nc2ccc(NC(=S)NCCC(C)C)cc12	3399	1	16	-8	4	·	2.0

# Random draw from the library (roughly 4% active in at least one column).
